Source: PubChem BioAssay
Ecoli rRNA inh – inhibits bacterial ribosomal RNA function over humanized ribosomes; E. coli WT GFP vs humanized-ribosome RFP mutants, fluorescence, 24 h; hits give low values; DMSO median 0, no signal -100; AID 720706; GFP signal change (wild-type ribosome), % (concentration not given with the values); 350,000 compounds, 1.6% hits;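 active means significant combined selectivity score with lowered wild-type GFP, culture density cut under 30%, mutant RFP and density less affected; inactive means any of these conditions unmet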; further: one replicate is shown; some compounds called inactive have numbers as strong as hits
FGF22 binding – binders of recombinant human FGF22 by thermal shift. Q9HCT0. SYPRO orange fluorescence; percent of sucrose octasulfate shift, DMSO zero. calls only at 9.99 µM. 340,000 compounds, 1.5% hits. AID 651658;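 active means melting point raised past a set limit in the mean and every replicate; three in four hits are not shown here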
Target sequence (Q9HCT0 whole entry, looked up): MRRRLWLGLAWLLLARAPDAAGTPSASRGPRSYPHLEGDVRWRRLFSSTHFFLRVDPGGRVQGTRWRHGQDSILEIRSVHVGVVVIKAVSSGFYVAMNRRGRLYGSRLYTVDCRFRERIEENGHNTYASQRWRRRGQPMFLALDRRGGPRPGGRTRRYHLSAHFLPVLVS
Ecoli rRNA inh OD600 – further read-out of Ecoli rRNA inh, marked with its call; OD600 change, %; measured here: OD600 growth;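 optical density of the mix in the first replicate; 0 = DMSO median and -100 = no signal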
Ecoli rRNA inh RFP – further read-out of Ecoli rRNA inh, marked with its call; RFP signal change, %; measured here: RFP humanized mutant strains;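 first replicate; 0 = DMSO median and -100 = no signal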
An asterisk follows results filed as active; i = inactive; + = active, no number. Not all compounds are listed; count on the stated rates, not on these rows.

SMILES	Ecoli rRNA inh	Ecoli rRNA inh OD600	Ecoli rRNA inh RFP	FGF22 binding
Cc1ccccc1-c1ccccc1[C@H]1[C@@H](CO)N(C(=O)c2ccccc2)[C@H]1C#N	4	-23	-0.6	+
C[C@@H]1CN([C@H](C)CO)S(=O)(=O)c2ccc(-c3cncnc3)cc2O[C@@H]1CN(C)Cc1ccncc1	0	0	-0.8	i
C[C@@H]1CCCCO[C@@H](CN(C)Cc2ccc(C(F)(F)F)cc2)[C@@H](C)CN([C@H](C)CO)C(=O)c2cc(NS(C)(=O)=O)ccc2O1	-1	0	1.5	i
C[C@@H]1CCCCO[C@H](CN(C)Cc2ccc(Cl)c(Cl)c2)[C@@H](C)CN([C@@H](C)CO)C(=O)c2cc(NC(=O)Nc3ccc(F)cc3)ccc2O1	2	2	0.5	i
C[C@H](CO)N1C[C@H](C)[C@H](CN(C)CC2CCCCC2)Oc2c(NC(=O)NC3CCCCC3)cccc2C1=O	-2	4	-0.1	i
CC(C)C#Cc1ccc2c(c1)O[C@@H](CN(C)Cc1ccccn1)[C@@H](C)CN([C@H](C)CO)S2(=O)=O	-10	-41	21	i
CCC(=O)N1CCCCN2[C@@H](CO)[C@@H](c3ccc(C#Cc4ccccc4F)cc3)[C@@H]2C1	-8	-52	6.6	i
O=C(NCC[C@@H]1CC[C@H](NC(=O)c2ccncc2)[C@H](CO)O1)Nc1ccc(Cl)cc1	-19	-18	0.3	i
C[C@H](CO)N1C[C@H](C)[C@H](CN(C)S(=O)(=O)c2cccc(F)c2)Oc2ncc(C#Cc3ccccc3)cc2C1=O	2	5	-1.3	i
Cc1ccc(S(=O)(=O)N(C)C[C@@H]2OCCCC[C@@H](C)Oc3ccc(NC(=O)NC4CCCCC4)cc3C(=O)N([C@H](C)CO)C[C@@H]2C)cc1	3	12	-1.1	i
CCC(=O)N1[C@@H]2CN(C(=O)c3ccncc3)c3ccccc3[C@@H]2[C@@H]1CO	2	8	-2.0	i
COC(=O)C1=C(C)N(Cc2ccccc2C(F)(F)F)C(=NCc2ccc(OC)cc2)NC1c1cccc(Cl)c1 (stereo not drawn)	-42	-68	-12	i
CO[C@H]1CN(C)C(=O)c2ccc(NC(C)=O)cc2OC[C@H](C)N(C(=O)CN2CCOCC2)C[C@H]1C	1	4	-2.4	i
COc1ccc2c3c([nH]c2c1)[C@@H](CO)N(C(=O)c1cccc(F)c1)CC31CCN(C(=O)c2cccc(F)c2)CC1	-3	-11	7.1	i
CCCc1cn(CC[C@H]2CC[C@@H](NC(=O)CCN3CCCCC3)[C@@H](CO)O2)nn1	1	1	-0.5	i

Next section, starting with the last two of the part before.
SMILES	Ecoli rRNA inh	Ecoli rRNA inh OD600	Ecoli rRNA inh RFP	FGF22 binding
COc1ccc2c3c([nH]c2c1)[C@@H](CO)N(C(=O)c1cccc(F)c1)CC31CCN(C(=O)c2cccc(F)c2)CC1	-3	-11	7.1	i
CCCc1cn(CC[C@H]2CC[C@@H](NC(=O)CCN3CCCCC3)[C@@H](CO)O2)nn1	1	1	-0.5	i
C[C@@H]1CN([C@H](C)CO)C(=O)c2cc(-c3cccc(C#N)c3)cnc2O[C@H]1CN(C)Cc1ccc(F)cc1	0	5	1.6	i
COc1cccc(CNC(=O)[C@@H]2[C@@H](CO)[C@@H]3Cn4c(ccc(C5=CCCCC5)c4=O)[C@H]2N3)c1	1	1	-1.8	i
COc1ccc(NC(=O)Nc2ccc3c(c2)[C@@H]2C[C@@H](CC(=O)NC4CCCCC4)O[C@@H](CO)[C@@H]2O3)cc1	-2	-5	3.4	i
C[C@@H]1CN([C@@H](C)CO)C(=O)c2cc(NC(=O)Nc3ccc(F)cc3)ccc2O[C@@H]1CN(C)Cc1ccc(C(=O)Nc2ccccc2N)cc1	-20	-36	10	i
O=C(Cc1ccncc1)Nc1ccc2c(c1)[C@@H]1C[C@H](CC(=O)NC3CCCC3)O[C@@H](CO)[C@@H]1O2	7	20	-2.0	i
CCCN1[C@@H]2c3ccc(C4=CCCCC4)c(=O)n3C[C@H]1[C@H](CO)[C@H]2C(=O)NCC	1	1	0.5	i
C[C@@H]1CN([C@@H](C)CO)C(=O)c2cc(NC(=O)Nc3ccc(F)cc3)ccc2O[C@@H](C)CCCCO[C@H]1CN(C)CC1CC1	1	4	0.7	i
Cc1noc(C)c1S(=O)(=O)Nc1ccc2c(c1)C(=O)N([C@@H](C)CO)C[C@H](C)[C@H](CN(C)C(=O)C1CCCCC1)OCCCC[C@@H](C)O2	3	0	-0.1	i
Cc1ccccc1-c1ccccc1[C@H]1[C@@H](C#N)N(C(=O)c2ccc(F)cc2)[C@@H]1CO	2	2	1.0	i
CO[C@H]1CC[C@@H]2CCN(C)C(=O)CCCN(C)C(=O)c3cccc(C#N)c3OC[C@H]1O2	5	6	-1.0	i
COCC#Cc1ccc([C@@H]2[C@@H](CO)N3CCCCN(S(=O)(=O)c4ccc(OC)cc4)C[C@@H]23)cc1	1	-6	0.2	i
CO[C@H]1CN(C)C(=O)c2ccc(NC(=O)c3ccc(F)cc3)cc2OC[C@@H](C)N(C(C)=O)C[C@@H]1C	1	-1	0.2	i
C[C@@H]1CN([C@@H](C)CO)C(=O)c2cc(NC(=O)CCCN(C)C)ccc2O[C@H]1CN(C)S(=O)(=O)c1cn(C)cn1	-2	16	0.7	i
CN1CCN(C(=O)C[C@@H]2CC[C@@H]3[C@H](COC[C@@H](O)CN3C(=O)C3CC3)O2)CC1	-2	-1	2.8	i
N#C[C@H]1[C@H](c2ccccc2-c2ccc(F)cc2)[C@H](CO)N1C(=O)Cc1ccccc1	-8	-54	28	i
C[C@@H]1CN([C@H](C)CO)C(=O)c2cc(NC(=O)Nc3ccccc3)ccc2O[C@@H]1CN(C)S(=O)(=O)c1ccc(F)cc1	-1	-2	-1.9	i
C[C@H]1CN([C@@H](C)CO)C(=O)Cc2cc(NC(=O)NC3CCCCC3)ccc2O[C@@H]1CN(C)Cc1ccc2c(c1)OCO2	-8	-4	4.6	i
CCS(=O)(=O)N1CC2(C1)[C@H](c1ccccc1)[C@H](CO)N2CC1CCCC1	-9	-14	0.7	i
C[C@H](CO)N1C[C@H](C)[C@H](CN(C)S(=O)(=O)c2cccc(F)c2)Oc2ncc(/C=C/c3ccccc3)cc2C1=O	4	7	0.4	i
CC(=O)N(C)C[C@@H]1Oc2ncc(C#Cc3ccccc3F)cc2C(=O)N([C@H](C)CO)C[C@H]1C	-5	-10	-2.5	i
C[C@@H]1CN([C@H](C)CO)S(=O)(=O)c2ccc(-c3cccc(C#N)c3)cc2O[C@@H]1CN(C)C(=O)c1cccnc1	-5	-5	1.6	i
Cc1noc(C)c1S(=O)(=O)Nc1ccc2c(c1)C(=O)N([C@@H](C)CO)C[C@@H](C)[C@H](CN(C)CC1CCCCC1)O2	1	2	2.5	i
CC(C)NC(=O)Nc1cccc2c1O[C@H](CN(C)C(=O)Nc1cccc3ccccc13)[C@H](C)CN([C@@H](C)CO)C2=O	3	-4	1.5	i
COc1cccc(S(=O)(=O)N(C)C[C@@H]2Oc3ncc(C#CCC(C)C)cc3C(=O)N([C@@H](C)CO)C[C@@H]2C)c1	3	-2	6.0	i
O=C(Nc1ccc(F)cc1)N[C@H]1CC[C@@H](CCNS(=O)(=O)c2ccccc2F)O[C@@H]1CO	-2	-4	1.6	i
C[C@@H]1CCCCO[C@@H](CN(C)Cc2ccncc2)[C@@H](C)CN([C@@H](C)CO)C(=O)c2cc(NC(=O)CCC(F)(F)F)ccc2O1	5	5	-1.0	i
C[C@@H]1CCCCO[C@H](CN(C)C(=O)c2ccncc2)[C@@H](C)CN([C@H](C)CO)C(=O)c2cc(NS(=O)(=O)c3cccs3)ccc2O1	3	3	-0.1	i
C/C=C/c1ccc2c(c1)O[C@@H](CN(C)C(=O)Cc1cccnc1)[C@@H](C)CN([C@@H](C)CO)S2(=O)=O	6	14	-2.6	i
CC(C)C#Cc1ccc([C@@H]2[C@@H](CO)N(C(=O)C3CCC3)[C@H]2C#N)cc1	1	0	0.6	i
COCc1cn(CC[C@H]2CC[C@@H](NC(=O)Cc3cccnc3)[C@@H](CO)O2)nn1	1	2	-1.7	i
CCS(=O)(=O)N1CCCCN2[C@H](CO)[C@@H](c3ccc(-c4ccccc4F)cc3)[C@H]2C1	0	-2	-1.1	i
CCCNC(=O)N1[C@H](CO)[C@@H]2c3ccccc3N(C(=O)c3ccc(F)cc3)C[C@@H]21	5	10	-3.3	i
O=C(N[C@H]1CC[C@@H](CCn2cc(-c3ccccc3)nn2)O[C@H]1CO)c1cnccn1	3	11	1.5	i
CN1CCN(C(=O)C[C@@H]2C[C@H]3c4cc(NC(=O)CC5CC5)ccc4O[C@H]3[C@@H](CO)O2)CC1	3	8	-1.9	i
CO[C@H]1CN(C)C(=O)c2ccc(NC(=O)C3CC3)cc2OC[C@@H](C)N(C(=O)c2ccccc2)C[C@@H]1C	-1	-2	0.1	i
CNC[C@H]1Oc2ccc(NC(=O)Nc3c(C)noc3C)cc2CC(=O)N([C@H](C)CO)C[C@@H]1C	4	5	-0.6	i
COc1ccc(S(=O)(=O)Nc2ccc3c(c2)CC(=O)N([C@H](C)CO)C[C@H](C)[C@H](CN(C)S(=O)(=O)c2ccc(F)cc2)O3)cc1	-3	5	1.9	i
C[C@@H]1CN([C@H](C)CO)C(=O)c2cccc(NC(=O)NC3CCCCC3)c2O[C@H]1CN(C)Cc1ccncc1	1	4	-1.7	i
CC(C)NC(=O)N1[C@H](CO)[C@@H](c2ccccc2)C12CN(C(=O)Cc1cccnc1)C2	3	11	-1.6	i
C[C@@H]1CN([C@H](C)CO)C(=O)c2cc(NC(=O)Nc3ccc4c(c3)OCO4)ccc2O[C@@H](C)CCCCO[C@H]1CN(C)Cc1ccc(C(=O)O)cc1	3	-1	-2.0	i
CNC[C@@H]1Oc2ccc(NS(=O)(=O)c3ccc(Cl)cc3)cc2CC(=O)N([C@@H](C)CO)C[C@H]1C	2	3	-0.1	i
CCCNC(=O)Nc1ccc2c(c1)OC[C@@H](C)N(Cc1ccc(-c3ccccn3)cc1)C[C@@H](C)[C@@H](OC)CN(C)C2=O	-1	5	1.8	i
COc1ccc(NC(=O)N(C)C[C@H]2OCCCC[C@@H](C)Oc3ccc(NS(=O)(=O)c4ccccc4)cc3C(=O)N([C@H](C)CO)C[C@@H]2C)cc1	3	7	0.3	i
CNC[C@H]1OCCCC[C@@H](C)Oc2ccc(NC(=O)Nc3ccc(F)cc3)cc2C(=O)N([C@@H](C)CO)C[C@@H]1C	5	-1	-2.1	i
C[C@H](CO)N1C[C@H](C)[C@@H](CN(C)S(=O)(=O)c2ccc(F)cc2)Oc2c(NC(=O)C3CCOCC3)cccc2C1=O	5	2	0.0	i

Not a retest: entries from further up.
SMILES	Ecoli rRNA inh	Ecoli rRNA inh OD600	Ecoli rRNA inh RFP	FGF22 binding
CNC[C@@H]1Oc2ccc(NS(=O)(=O)c3ccc(Cl)cc3)cc2CC(=O)N([C@@H](C)CO)C[C@H]1C	2	3	-0.1	i
CCCNC(=O)Nc1ccc2c(c1)OC[C@@H](C)N(Cc1ccc(-c3ccccn3)cc1)C[C@@H](C)[C@@H](OC)CN(C)C2=O	-1	5	1.8	i
COc1ccc(NC(=O)N(C)C[C@H]2OCCCC[C@@H](C)Oc3ccc(NS(=O)(=O)c4ccccc4)cc3C(=O)N([C@H](C)CO)C[C@@H]2C)cc1	3	7	0.3	i
CNC[C@H]1OCCCC[C@@H](C)Oc2ccc(NC(=O)Nc3ccc(F)cc3)cc2C(=O)N([C@@H](C)CO)C[C@@H]1C	5	-1	-2.1	i
C[C@H](CO)N1C[C@H](C)[C@@H](CN(C)S(=O)(=O)c2ccc(F)cc2)Oc2c(NC(=O)C3CCOCC3)cccc2C1=O	5	2	0.0	i

The listing continues:
SMILES	Ecoli rRNA inh	Ecoli rRNA inh OD600	Ecoli rRNA inh RFP	FGF22 binding
C[C@@H]1CCCCO[C@H](CN(C)S(C)(=O)=O)[C@@H](C)CN([C@H](C)CO)C(=O)c2cc(NS(=O)(=O)c3cn(C)cn3)ccc2O1	3	12	-2.7	i
N#C[C@@H]1[C@H](c2ccc(-c3cccnc3)cc2)[C@H](CO)N1C(=O)C1CCC1	1	3	0.0	i
OC[C@H]1[C@@H](c2ccc(Br)cc2)[C@H]2CNCCCCN21	6	25	2.5	i
COc1ccc(NC(=O)Nc2ccc3c(c2)C(=O)N([C@@H](C)CO)C[C@H](C)[C@H](CN(C)C(=O)Nc2ccc4c(c2)OCO4)O3)cc1	0	-3	-2.3	i
COc1ccc(CNC(=O)C[C@H]2C[C@H]3c4cc(NS(=O)(=O)c5ccc(F)cc5)ccc4O[C@H]3[C@@H](CO)O2)cc1	-4	-13	1.6	i
COc1cccc(NC(=O)Nc2ccc3c(c2)C(=O)N(C)[C@@H]2CC[C@H](CC(=O)NCCc4ccccc4)O[C@H]2CO3)c1	-4	-4	2.0	i
C[C@@H]1CN([C@H](C)CO)C(=O)c2cc(NC(=O)CCC(F)(F)F)ccc2O[C@@H](C)CCCCO[C@H]1CN(C)C(=O)c1ccccc1	0	-1	-4.6	i
C[C@H]1CCCCO[C@@H](CN(C)C(=O)C2CCCCC2)[C@@H](C)CN([C@@H](C)CO)C(=O)c2cc(NS(=O)(=O)c3cccs3)ccc2O1	-3	-16	1.2	i
O=C(Cc1ccccc1)N[C@@H]1C=C[C@H](CC(=O)N2CCCCC2)O[C@@H]1CO	2	4	-0.6	i
